PINK1 expr mod: PINK1 expression modulation | PINK1 immunofluorescence, high-content cytometry, 24 h | Potency, µM (top dose mostly 76.6 µM), for the others: top-dose activation (PINK1 increase), hits mostly activators | 410,000 tested, 0.2% active | AID 624263; active = well fitted activation curve with a large enough effect; inconclusive = small, poorly fitted or top-dose-only effect; inactive = flat fitted curve, though single readings scatter; cell line not stated here;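 also: potency is read from the fitted curve at half-maximal effect; % of control where 0% means no effect; nearly all actives have a fitted effect of over 65% in size; a mitochondrial uncoupler was the plate control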
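PINK1 protein, normally rapidly degraded, was detected by immunofluorescence after 24 hour compound treatment of a stable cell line. Titration data (5 concentrations) came from laser-scanning cytometry, with CCCP-treated wells as controls.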
Sfp inh: inhibitors of Bacillus subtilis Sfp phosphopantetheinyl transferase. Q9F4F7. AID 1490. Potency, µM, inactives show max response, negative = inhibition, most hits filed as inhibitors. 310,000 tested, 3.5% active. Biochemical Sfp PPTase activity, qHTS; active = well fitted inhibition curve with a large enough effect; inconclusive = small, poorly fitted or top-dose-only effect, or another doubt; inactive = no such curve, though single readings can be large or run the other way;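 also: the enzyme is Sfp with the accession as filed and its product quenches rhodamine fluorescence; potency is read from the fitted curve at half-maximal effect; 0% = enzyme reaction without inhibitor and -100% = no enzyme wells; top concentration of the series not given in the record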
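With Hepes-Na pH 7.6 buffer containing 10 mM MgCl2, Sfp (15 nM) modified BHQ-2-YbbR (12.5 uM) using rhodamine-CoA (5 uM). Two reads 30 minutes apart at 525/598 nm yielded each well's rate.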
TRPML1 ag: activates the human TRPML1 channel. TRPML1-expressing cells, Ca2+ dye fluorescence, FDSS; host cell line not named in the record; reference of the full effect not given here. Q9GZU1. 410,000 tested, 0.12% active. activation, % (concentration not given with the values); in the data active = activation above about 50%; inconclusive = about 30% to 50%; inactive = below about 30%; also: 0% is about no effect; the text of the record puts the active cut at 80%
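Tet-induced TRPML1-DL cells, 1,500 per well, cultured overnight, were loaded with a no-wash Ca2+ dye for 45–90 min. Calcium fluorescence was recorded on the FDSS for 110 s after compound addition, before the EC80 agonist (4 uM 54-4) was added.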
ClpP mod: qHTS Assay for Activators of ClpP; 340,000 tested, 1.9% active; purified B. subtilis ClpP, FRET peptide cleavage, 20 min; Potency, µM (series often up to 57.5 µM), for the others: at the highest dose activity change, negative = active; ATP-dependent Clp protease proteolytic subunit (Bacillus subtilis (strain 168)), P80244; active = well fitted falling curve with a large enough effect; inconclusive = small, poorly fitted or top-dose-only effect; inactive = no such curve, though single readings can be large or run the other way; also: potency is read from the fitted curve at half-maximal effect; the source files actives as falling curves though it sought activators and does not explain the sign; nearly all actives have a fitted effect of over 65% in size; many hits overshoot -100%
Target sequence (P80244 whole entry, looked up): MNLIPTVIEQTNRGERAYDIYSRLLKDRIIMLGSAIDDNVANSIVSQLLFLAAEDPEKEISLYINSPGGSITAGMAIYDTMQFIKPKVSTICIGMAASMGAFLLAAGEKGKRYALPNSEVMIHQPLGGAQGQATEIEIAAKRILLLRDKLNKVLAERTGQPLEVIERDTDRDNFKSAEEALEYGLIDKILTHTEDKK
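Purified B. subtilis ClpP, 10 microg/mL final in Tris/HCl pH8 with KCl, BSA, glycerol and Tween-20, cleaved an Abz/nitrotyrosine-quenched decapeptide. Fluorescence (ex 320, em 430) was read at 0 and 20 min at room temperature. Delta was normalized to 5.8 microM ADEP and DMSO/no-enzyme controls.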
TRPV1 potentiator: enhances activation of the human vanilloid receptor TRPV1 | 320,000 tested, 0.02% active | potentiation, % at 8.33 µM | TRPV1-expressing cells, Fluo-8 calcium influx, capsaicin EC20 potentiation; host cell line not named in the record; control for the full effect not named in the record; active means potentiation above 80%; inconclusive means 30% to 80%; inactive means below 30%; also: 0% is about no effect
Target sequence (Q8NER1 whole entry, looked up): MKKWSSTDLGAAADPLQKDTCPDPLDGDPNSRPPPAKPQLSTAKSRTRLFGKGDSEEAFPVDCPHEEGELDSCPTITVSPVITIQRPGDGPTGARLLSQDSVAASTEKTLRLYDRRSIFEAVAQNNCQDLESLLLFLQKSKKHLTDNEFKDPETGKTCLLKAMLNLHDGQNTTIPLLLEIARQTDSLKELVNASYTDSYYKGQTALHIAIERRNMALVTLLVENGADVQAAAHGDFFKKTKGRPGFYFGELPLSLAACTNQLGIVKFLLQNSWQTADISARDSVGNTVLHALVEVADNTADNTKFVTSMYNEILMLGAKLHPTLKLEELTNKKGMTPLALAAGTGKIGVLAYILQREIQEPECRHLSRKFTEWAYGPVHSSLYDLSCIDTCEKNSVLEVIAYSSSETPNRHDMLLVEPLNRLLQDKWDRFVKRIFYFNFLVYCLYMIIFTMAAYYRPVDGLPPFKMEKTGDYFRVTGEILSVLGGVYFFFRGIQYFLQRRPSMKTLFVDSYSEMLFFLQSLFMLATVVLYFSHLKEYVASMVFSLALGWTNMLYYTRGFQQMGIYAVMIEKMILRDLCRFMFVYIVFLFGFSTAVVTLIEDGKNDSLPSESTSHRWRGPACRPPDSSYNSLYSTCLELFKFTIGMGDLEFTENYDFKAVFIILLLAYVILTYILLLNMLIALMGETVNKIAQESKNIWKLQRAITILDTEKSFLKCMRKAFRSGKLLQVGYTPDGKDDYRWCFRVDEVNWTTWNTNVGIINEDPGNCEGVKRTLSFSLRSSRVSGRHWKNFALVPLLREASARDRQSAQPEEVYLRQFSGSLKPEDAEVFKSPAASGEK
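TRPV1-expressing cells were cultured overnight at 35.5C and loaded with Fluo-8 calcium dye for 40 to 90 min at room temperature. After a 10 s baseline, compound was added and calcium influx was read kinetically for 3 min (ex 480/em 520 nm).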
Menin-MLL FL inh: menin-MLL binding inhibition, fluorescein peptide; Fluorescence polarization, fluorescein-MLL peptide displacement from menin; FP activity change, % at 61.4 µM; 290,000 tested, under 10 active; AID 1766; inconclusive = falling polarisation curve, or a change in total fluorescence; inactive = total fluorescence flat and polarisation flat or rising; no compound was filed as active; the % refers to the polarisation; negative = inhibition;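 also: % of control where 0% means no effect; inhibitors lower the polarisation; unlabelled MLL peptide was the positive control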
TRPML1 blocker: human mucolipin-1 channel inhibition; Q9GZU1; TRPML1-inducible cells, Ca2+ dye fluorescence, FDSS; active compounds read low; inhibition of EC80 agonist-evoked calcium signal; activity change, negative = inhibition, % (concentration not given with the values); 390,000 tested, 0.02% active; in the data active means activity change below about -50%; inconclusive means about -30% to -50%; inactive means above about -30%;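 also: stimulus is agonist 54-4 at its EC80 concentration; % is scaled to controls: 0 for no effect and ±100 for the full control effect; the text of the record puts the active cut at -80%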
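TRPML1-DL cells, Tet-induced overnight (~16 h, 37 °C) at 1,500 cells/well, were loaded with Ca8 no-wash dye plus quencher for 45-90 min at room temperature. Compounds were pinned during FDSS kinetic reading; agonist 54-4 at EC80 (4 uM final) then added.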
Numbers without * were called inactive; ? = inconclusive; . = no result given; [ ] = another dose, or the depositor's remark.

Values run as follows: PINK1 expr mod, Sfp inh, TRPML1 ag, ClpP mod, TRPV1 potentiator, Menin-MLL FL inh, TRPML1 blocker
CC(=O)N(CCc1ccccc1C)Cc1cc2cc3c(cc2[nH]c1=O)OCO3
  -2.4%, 5%, 1.5, 28µM*, -29, 4.9, -1
Cc1cc(C)cc(N2C(=O)CN(Cc3ccccc3)C2=S)c1
  1.1%, 1%, 4.4, 0.0%, -23, 4.8, 37
CCC(=O)N1c2ccccc2CC1C(=O)NCCCN1CCN(c2cccc(Cl)c2)CC1 (configuration not stated)
  1.2%, ., 0.5, -1.4%, ., ., 30
Clc1cccc(C2=NC(c3cccs3)=Nc3ccc(Br)cc3N2)c1
  -0.5%, ., -0.5, 0.7%, ., ., -16
COc1ccc(OC)c(N(CC(=O)Nc2ccccc2)S(C)(=O)=O)c1
  0.0%[38.3 µM], 13%, -0.7, -0.5%, -31, 1.1, -5
O=C1NC(=O)N2CCSC2(Cc2ccccc2)N1 (configuration not stated)
  6.1%, ., -0.2, -0.2%, ., ., 4
COc1cccc(CN2CC(C(=O)N3CCCCCCC3)CCC2=O)c1 (configuration not stated)
  -0.5%, 9%, -0.1, -0.5%, 24, ., 9
CCCS(=O)(=O)c1c(S(=O)(=O)CCC)c2c(C(N)=O)cccn2c1C(=O)c1ccc(F)cc1
  3.0%, 6%, 1.0, 0.5%, -1, -1.5, 3
CCOC(=O)C1(Cc2cccc(Cl)c2)CCCN(C(=O)c2ccc(COC)s2)C1 (configuration not stated)
  0.2%, 8%, -0.5, -14%, -26, ., 4
CC(=O)Nc1ccc(OCCC[n+]2ccccc2)cc1
  -0.5%, 14%, 0.4, 1.0%, -9, 0.4, 10
CCN1CCCC1CNC(=O)c1csc2c1CCCC2 (configuration not stated)
  -1.2%[38.3 µM], 13%, 0.5, -0.3%, 5, -2.0, 3
O=C(Nc1nnc(-c2cccs2)o1)c1cccc(Oc2ccccc2)c1
  -0.4%, 14%, 7.8, -3.1%, ., 1.7, -17
CNC(=O)/C(C#N)=C/c1ccc(-c2nc3ccccc3s2)o1
  0.1%, 12%, 0.6, ., 5, 4.3, 27
CCN(CC)CCCNC(=O)c1nn(-c2ccc(OC)cc2)c(=O)c2c1c1ccccc1n2C
  -0.9%, ., 1.0, -2.9%, ., ., -5
CC1=C(C(=O)OCc2ccc(C)cc2)C(c2ccccc2C(F)(F)F)CC(=O)N1 (configuration not stated)
  1.8%, ., 3.4, -1.3%, ., ., -8
COc1ccc(Cl)cc1NC(=O)COC(=O)Cc1cc(OC)c(OC)c(OC)c1
  -2.5%, ., 3.1, ., ., ., -11
COC(=O)c1cccc(OCC(O)Cn2cnc3cc(C)c(C)cc32)c1 (configuration not stated)
  -1.5%, 89µM*, -0.2, -3.0%, -6, 3.6, -14
O=C(CCS(=O)(=O)c1ccccc1)N(Cc1cccnc1)c1nc2ccc(Cl)cc2s1
  8.8%, ., 0.5, -2.6%, ., ., 14
CC(=O)Nc1ccc(CNc2nc3cc(-c4ccccc4C)sc3c(=O)n2C)cc1
  5.5%, ., 1.3, -10%, ., ., .
COc1ccc(CC(=O)NC(C)c2nnc(SCC(=O)Nc3ccccc3F)n2C)cc1 (configuration not stated)
  -1.2%, 17%, 1.5, -1.6%, -2, 0.6, 47
CC1CN(C(=O)N2c3ccccc3Sc3ccccc32)C(C)CC1=O (configuration not stated)
  2.6%, -20%, 7.1, -1.1%, -6, 2.1, 13
Cc1ccc(CNC(=O)COCc2cc(-c3ccc4c(c3)OCO4)on2)cc1
  0.7%, ., 1.3, -11%, ., ., 15
O=C(CN1CCOCC1)Nc1cccc(Cl)c1Cl
  -1.1%, 18%, -0.3, 2.6%, -6, -1.0, -15
COCCCN1C(=O)C(CC(=O)NCCCCc2ccccc2)CC(C(=O)N(C(C)C)C(C)C)=C1C (configuration not stated)
  2.3%, ., -0.7, -0.2%, ., ., .
COc1nccnc1NS(=O)(=O)c1ccc(NC(=S)NC(=O)/C=C/c2ccc(F)cc2)cc1
  -2.0%, -2%, 0.2, -1.7%, -2, 0.0, -8
Cc1cc(C)cc(OC(=O)c2cc(-c3ccc4c(c3)OCCO4)on2)c1
  -1.2%, ., -1.0, 32µM*, ., ., 6
CCOCCCn1c(=S)[nH]c2cc(C(=O)NC3CCCCC3C)ccc2c1=O (configuration not stated)
  -0.1%, 26%, -0.7, -3.9%, -8, -6.1, 2
O=C(N/N=C/c1cn(-c2ccccc2)nc1-c1cccnc1)c1ccc(F)cc1
  2.8%, -4%, 2.1, -5.6%, -19, 7.8, 7
Cn1cccc1C(=O)NCc1ccccn1
  0.8%, ., 0.9, -5.0%, 10, ., 15
CC(NC(=O)Cc1ccc(NC2=NC3CS(=O)(=O)CC3S2)cc1)c1ccccc1 (configuration not stated)
  3.3%, 2%, 0.1, -1.2%, -14, 1.5, 18
CC(C1CC2CCC1C2)n1c(COc2ccccc2F)nnc1SCC(N)=O (configuration not stated)
  0.9%, -40%, 0.8, 0.8%, -5, 6.3, -9
COc1ccc(CN(CC(=O)NC2CCCC2)C(=O)CCC(=O)Nc2nccs2)cc1
  -1.1%, 9%, 0.3, ., 4, 3.5, 4
CCC(C(=O)NCc1ccc(OC)cc1)n1nc(C)n2c(cc3occc32)c1=O (configuration not stated)
  -0.8%, 15%, 0.0, -3.2%, 19, 5.0, -16
Cn1cnc2c(N3CCCCC3)nccc21
  -0.9%, -11%, -0.2, -3.0%, 8, -2.3, 1
COC(=O)c1cc(S(=O)(=O)N2CCCC2=O)c(Cl)cc1Cl
  5.0%, 17%, 0.0, 1.8%, 9, -9.1, 17
O=Cc1sc(N2CCOCC2)nc1-c1ccccc1
  ., ?, ., ., -19, 1.5, .
COc1ccc(N(CC(=O)NCC2CCCO2)S(=O)(=O)c2ccc(C)cc2)cc1OC (configuration not stated)
  -5.2%, 2%, -0.4, -0.7%, 0, -0.4, -11
COc1ccc(NS(=O)(=O)c2cccc(NC(=O)C34CCC(CC3)C4)c2)cc1
  1.8%, 13%, 0.2, ., -8, 3.1, 3
c1ccc(-n2c(-c3ccco3)nnc2N2CCOCC2)cc1
  0.8%[38.3 µM], 6%, 0.5, -6.5%, -6, 0.1, -11
CC(=O)c1c(-c2ccc(C)cc2)nc2c3ccccc3ccn12
  0.9%, -12%, -0.7, ., 23, 4.3, 12

2 compounds picked at random from those above:
Values run as follows: PINK1 expr mod, Sfp inh, TRPML1 ag, ClpP mod, TRPV1 potentiator, Menin-MLL FL inh, TRPML1 blocker
O=Cc1sc(N2CCOCC2)nc1-c1ccccc1
  ., ?, ., ., -19, 1.5, .
Cc1ccc(CNC(=O)COCc2cc(-c3ccc4c(c3)OCO4)on2)cc1
  0.7%, ., 1.3, -11%, ., ., 15

Next results follow.
Values run as follows: PINK1 expr mod, Sfp inh, TRPML1 ag, ClpP mod, TRPV1 potentiator, Menin-MLL FL inh, TRPML1 blocker
CC(C)=CC(=O)N1CCC(N2CCC(C(=O)N3CCOCC3)CC2)CC1
  -0.9%, 16%, 0.6, 0.1%, 1, -3.9, 36
CC(=O)N1c2ccccc2-c2nc3ccccc3n2C1C (configuration not stated)
  -0.7%, 21%, ., -26%, 8, -0.1, .
O=C1CN(C(=O)CSc2nnnn2C2CC2)c2ccccc2N1
  4.9%, ., 2.8, -0.1%, 10, ., 32
Fc1ccc(/C=N/Nc2nn[nH]n2)cc1
  0.3%, ?, 1.0, -0.4%, -4, -4.8, 12
CCOc1ccc(C(=O)c2cn(Cc3ccc(OC)cc3)c3cc(OC)c(OC)cc3c2=O)cc1
  -0.6%, ., 1.8, -0.7%, ., ., -18
Cc1[nH]c(C)c(S(=O)(=O)N(Cc2ccccc2)C(C)(C)C)c1C(=O)N1CCCC1
  0.7%, 4%, 3.9, 1.2%, -2, -9.0, 0
O=S(=O)(NN=C1CCCCCC1)c1ccccc1
  1.8%, 17%, -0.3, -0.6%, -5, ., -9
O=S1(=O)CCOC(CO)CN1Cc1ccc(Cl)c(Cl)c1 (configuration not stated)
  2.5%, ., -1.0, 1.8%, ., ., -9
COCCN(CC(=O)Nc1cccc(C)c1C)C(=O)C1CCN(S(=O)(=O)c2ccccc2)CC1
  0.2%, ., 2.2, -1.4%, ., ., 29
CCOC(=O)c1c(N)sc(C(=O)Nc2ccc3c(c2)OCO3)c1C
  -0.4%, 6%, -0.4, 0.5%, 0, 3.4, 7
Cc1nn(CC(=O)NCCCN2CC(C)CC(C)C2)c(=O)c2cccn12 (configuration not stated)
  -0.6%, 1%, -0.5, -2.8%, -11, ., 9
CC1Cc2ccccc2N1C(=O)CO/N=C/c1ccccc1OC(F)F (configuration not stated)
  4.7%, -4%, 3.4, ., -2, 5.0, -11
C=C/C(C)=C/CC1C(=C)CCC2C(C)(C(=O)O)CCCC12C (configuration not stated)
  0.0%, -2%, 0.3, -2.3%, -6, -0.3, 17
CC(=O)NC(c1ccc([N+](=O)[O-])cc1)c1c(O)ccc2ccccc12 (configuration not stated)
  2.8%, 6%, 2.8, ., 6, -1.7, 10
C/C(NC(=O)c1cccc(F)c1)=C1/C(=O)C[C@@H]2[C@H]1C2(C)C
  6.4%, 4%, 0.6, -1.6%, -6, 6.7, -2
O=C(CN1CCCC1)Nc1ccccc1C(=O)c1ccccc1
  0.3%, 6%, 0.0, -0.7%, -2, 2.8, 34
CC1CC(C)CN(C(=O)COc2ccc(-c3nnco3)cc2)C1 (configuration not stated)
  ., 27%, 0.0, 2.4%, 0, 1.1, 15
CCN(CC)CC(=O)N1c2ccccc2Sc2ccccc21
  -1.3%, 22%, 1.2, -1.2%, 11, -2.2, 23
COc1ccc(N2CCN(C(c3ccc(C)cc3)c3nnnn3C(C)(C)C)CC2)cc1 (configuration not stated)
  0.4%, ., -0.9, -2.3%, ., ., .
O=C(NNS(=O)(=O)c1ccc2ccccc2c1)NC1CCCCC1
  0.2%, 2%, 0.9, -0.9%, -7, 4.1, -2
Cc1ccc(N(CCC#N)C(=O)COC(=O)C2CCN(S(=O)(=O)c3ccc4c(c3)OCCO4)CC2)cc1
  1.1%, ., -0.1, -2.9%, 26, ., -20
Cc1c(C(=O)Nc2ccc(S(=O)(=O)Nc3ncccn3)cc2)oc2ccccc12
  -0.3%, ., -0.2, -2.4%, 9, ., 14

High-throughput results (PubChem BioAssay)
